RE007 growth inh: less growth of the S. pombe RE007 Vpr strain | AID 651644 | Potency, µM (titrated, usually from 92.2 µM), inactives show at the top dose activity change, negative = less growth | 360,000 tested, 0.21% active | S. pombe RE007 Vpr strain, BacTiter-Glo ATP luminescence, 24 h; control for the full effect not named in the record; active = well fitted falling curve with a large enough effect; inconclusive = small, poorly fitted or top-dose-only effect; inactive = no such curve, though single readings can be large or run the other way;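 also: % is scaled to controls: 0 for no effect and ±100 for the full control effect; nearly all actives have a fitted effect of over 50% in size; the assay follows cell death caused by Vpr and the record does not say whether a fall means rescue or toxicity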
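Fission yeast strain RE007, carrying one chromosomally integrated HIV-1 vpr copy, was seeded at OD 0.01 in PMG+AL medium with 23 nL pinned compound. After 24 h at 30 °C and 99% humidity, viability was read by BacTiter-Glo luminescence.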
Marburg entry inh: Marburg virus entry inhibition | Potency, µM (doses to about 37.8 µM), without a hit: at the highest dose activity change, negative = inhibition, hits mostly inhibitors | 300,000 tested, 1.8% active | Marburg virus pseudotyped entry inhibition, cell reporter; control for the full effect not named in the record; about a third of the inactives were read at about 46 µM | AID 540276; active = well fitted inhibition curve with a large enough effect; inconclusive = small, poorly fitted or top-dose-only effect, or effect the other way; inactive = flat fitted curve, though single readings scatter; tested in HEK293 cells; about a fifth of its hits are not listed in these tables; also: % is scaled to controls: 0 for no effect and ±100 for the full control effect; luciferase read-out
Cruzain noTriton: cruzain (T. cruzi) inhibition without detergent. P25779. 200,000 tested, 2.3% active. Potency, µM, without a hit: max response, negative = inhibition, usual class: inhibitors. purified cruzain, Z-FR-AMC fluorescence, no detergent. AID 1476;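 also: plate controls were enzyme without inhibitor for no effect and buffer without enzyme for full effect; nearly all actives have a fitted effect of over 40% in size; top concentration of the series not given in the record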
Target sequence (P25779 123-467 limits assumed): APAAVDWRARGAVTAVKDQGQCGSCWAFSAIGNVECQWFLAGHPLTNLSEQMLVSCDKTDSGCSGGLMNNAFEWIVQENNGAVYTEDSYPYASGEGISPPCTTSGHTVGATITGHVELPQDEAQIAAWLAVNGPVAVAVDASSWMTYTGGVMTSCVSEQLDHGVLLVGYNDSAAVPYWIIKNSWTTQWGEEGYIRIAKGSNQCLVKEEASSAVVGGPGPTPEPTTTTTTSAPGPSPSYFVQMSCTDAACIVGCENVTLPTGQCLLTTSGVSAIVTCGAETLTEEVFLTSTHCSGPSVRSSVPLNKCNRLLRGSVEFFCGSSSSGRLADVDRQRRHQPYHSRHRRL
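Purified cruzain at 1.5 nM, pre-incubated 15 min with compound at room temperature in 100 mM sodium acetate pH 5.5, 5 mM DTT, 0.00005% Triton X-100. Reaction started with 2 uM Z-FR-AMC; AMC fluorescence increase over 60 s gives rate.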
2A StopGo: lowers the luciferase signal of an FMDV 2A StopGo reporter; human cells with a luciferase reporter of 2A StopGo recoding; control for the full effect not named in the record; 410,000 tested, 1.2% active; Potency, µM (top dose mostly 57.9 µM), without a hit: at the top dose signal change, negative = less light; active = well fitted falling curve with a large enough effect; inconclusive = small, poorly fitted or top-dose-only effect; inactive = no such curve, though single readings can be large or run the other way; tested in HEK293T cells; also: % is scaled to controls: 0 for no effect and ±100 for the full control effect; nearly all actives have a fitted effect of over 45% in size; luciferase light after 4 h
SARS PLpro yeast: inhibitors of SARS-CoV papain-like protease in yeast; S. cerevisiae expressing SARS-CoV PLpro, growth rescue; control for the full effect not named in the record; Potency, µM (titrated, usually from 32.9 µM), without a hit: at the highest dose activity, positive = growth rescue; 330,000 tested, 0.19% active; active means well fitted rising curve with a large enough effect; inconclusive means small, poorly fitted or top-dose-only effect; inactive means no such curve, though single readings can be large or run the other way; also: 0% is about no effect; nearly all actives have a fitted effect of over 55% in size; growth read by luminescence after 48 h
Cruzain inh Det: cruzain (T. cruzi) inhibition with detergent; Potency, µM, inactives show max response, negative = inhibition, actives largely listed as inhibitors; 200,000 tested, 0.43% active; purified cruzain, Z-FR-AMC fluorescence, 0.01% Triton;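 also: plate controls were neutral wells for no effect and buffer without enzyme for full effect; nearly all actives have a fitted effect of over 40% in size; top concentration of the series not given in the record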
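Detergent-containing arm of a paired screen for aggregation-based inhibition: 0.01% Triton X-100 present. Cruzain at 1.5 nM cleaved 2 uM Z-FR-AMC at pH 5.5 with 5 mM DTT; AMC fluorescence gain over 60 s measured activity.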
NS1 inh: inhibitors of influenza NS1 protein function | S. cerevisiae slowed by influenza A NS1, growth recovery by OD600 | Potency, µM (doses to about 46.1 µM), inactives show top-dose activity, positive = more growth | 270,000 tested, 0.4% active | AID 2326; active means well fitted rising curve with a large enough effect; inconclusive means small, poorly fitted or top-dose-only effect; inactive means no such curve, though single readings can be large or run the other way; also: nearly all actives have a fitted effect of over 50% in size
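Recovery from NS1-induced slow growth read by OD600 in budding yeast switched to galactose assay medium (pH 6.0, -URA) at 1:100 dilution. Compound 23 nl per well; the matching strain lacking NS1 serves as control.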
Lassa entry inh: blocks Lassa virus binding to or entry into cells; Lassa virus pseudotype entry inhibition, cell reporter; control for the full effect not named in the record; Potency, µM (titrated, usually from 37.9 µM), without a hit: at the top dose activity change, negative = inhibition, most hits filed as inhibitors; 300,000 tested, 1.2% active; active means well fitted inhibition curve with a large enough effect; inconclusive means small, poorly fitted or top-dose-only effect, or effect the other way; inactive means flat fitted curve, though single readings scatter; tested in HEK293 cells; also: % is scaled to controls: 0 for no effect and ±100 for the full control effect; nearly all actives have a fitted effect of over 50% in size; luciferase read-out
Numbers without * were called inactive; ? = inconclusive; / = not tested or not shown; & = joins results of further samples; [ ] = another dose, or the depositor's remark. Unless noted, calls follow the shape of the dose curve; as a rule, active = well fitted curve in the direction sought with a large enough effect; inconclusive = small, poorly fitted or top-dose-only effect, or another doubt; inactive = no such curve, though single readings can be large; an effect the other way counts as inactive or inconclusive. Potency is read from the fitted curve at half-maximal effect.

Every second line gives: RE007 growth inh	Marburg entry inh	Cruzain noTriton	2A StopGo	SARS PLpro yeast	Cruzain inh Det	NS1 inh	Lassa entry inh
1	N#C/C(=C\c1ccc(N2CCCC2)c([N+](=O)[O-])c1)c1nc2ccccc2[nH]1
→ 17%[3.69 µM]	-17%	?	11%	-5%	-6.2%	28%	17%
2	CCN(CC(=O)N1CCCCCC1)S(=O)(=O)c1ccc(Cl)cc1
→ -4%	2%	-2%	0%	/	1.9%	1%	-19%
3	Cc1cc(-c2nc3ccccc3c(=O)o2)ccc1[N+](=O)[O-]
→ -22%	0%[46.1 µM]	/	15%	5%	/	12%	-12%[46.1 µM]
4	Cc1ccc2nc(Nc3ccc(C)c(F)c3)c3nncn3c2c1
→ /	7%[46.1 µM]	9%	-5%	/	-4.2%	/	?
5	CC(=O)Nc1nnc(SCC(=O)N2C(C)CCCC2C)s1 (stereo unspecified)
→ 9%	23%[46.1 µM]	/	60%[activator]	1%	/	-5%	?
6	O=C(O)Cn1cccc1C(=O)c1ccccc1
→ 9%	2%	-10%	-2%	0%	-17%	-7%	5%
7	COc1ccc(C(CNC(=O)CNS(=O)(=O)c2ccc(NC(C)=O)cc2)N2CCOCC2)cc1 (stereo unspecified)
→ 4%	-15%	/	-16%	-13%	/	/	7%
8	Cc1ccccc1NC(=S)NC12CN3CN(CN(C3)C1)C2
→ 12%	-1%[46.1 µM]	/	-1%	2%	/	/	/
9	CCOP(=O)(OCC)/C(=N/OC(=O)c1ccccc1C)C(N)=O
→ -2%	-3%	4%	?	-6%	-1.8%	3%	-1%
10	CC(=O)c1ccc(OC(=O)/C=C/c2ccccc2)cc1
→ 2%	/	/	10%	10%	/	9%	/
11	COc1ccc(CN2C(=NC(=O)C3CCCO3)SC3CS(=O)(=O)CC32)cc1OC (stereo unspecified)
→ -13%	5%[46.1 µM]	/	27%	0%	/	-5%	4%[46.1 µM]
12	COc1ccccc1NC(=O)c1ccc(NC(=O)c2ccco2)cc1
→ -3%	?	/	2%	0%	/	-5%	?
13	CN(C)S(=O)(=O)n1cnc2ccccc21
→ 15%	10%	3%	-18%	-2%	0.9%	14%	6%
14	COc1ccc(OCCC(=O)OCC(=O)NCCc2ccccc2)cc1
→ 3%	2%[46.1 µM]	/	40%[activator]	2%	/	/	24%
15	O=C(NCCN1CCCCC1)Nc1ccccc1F
→ -16%	/	/	-2%	9%	/	23%	/
16	Cc1ccc(S(=O)(=O)N2CCC(C(=O)NCCc3ccc(S(N)(=O)=O)cc3)CC2)cc1
→ 11%	16%	1%	5%	-7%	3.7%	-4%	10%
17	Cc1nc(NC(=O)CSc2nc3ccccc3s2)sc1C(=O)N(C)C
→ 12%	14%	/	-3%	1%	/	-9%	-21%
18	C=CCNCCOCCSc1ccc(Cl)cc1
→ -8%	-16%	4%	-19%	-19%	-1.7%	14%	-1%
19	CCOC(=O)N1CCN(C(=O)C2CCN(S(=O)(=O)N3CCCC3)CC2)CC1
→ /	4%	-4%	/	4%	2.7%	4%	0%
20	Cc1ccc(CNS(=O)(=O)c2ccc3c(c2)n(C)c(=O)c(=O)n3C)cc1
→ -7%	18%[46.1 µM]	/	3%	1%	/	11%	3%[46.1 µM]
21	O=C(CSc1nccn1Cc1ccccc1)NCc1ccccc1
→ 5%	23%	13%	/	4%	4.8%	-6%	4%
22	NC(=O)C1CCN(C(=O)/C(=C/c2ccco2)NC(=O)c2ccccc2)CC1
→ -12%	?	/	0%	1%	/	3%	3%
23	Cc1cc2nc(N3C(=O)CNC3=S)sc2cc1C
→ -4%	?	/	-65%	-1%	/	-32%	?
24	CCc1c(C)nc(N)nc1OCC(F)(F)C(F)F
→ 1%	15%	-11%	-9%	-1%	-1.9%	-9%	-1%
25	COc1ccc(S(=O)(=O)N(CCC(N)=O)Cc2ccco2)cc1OC
→ 15%	13%[46.1 µM]	/	3%	1%	/	4%	4%
26	C=CCOc1ccc(CNn2cn[nH]c2=S)cc1OC
→ 1%	10%	0%	/	-1%	1.4%	8%	-13%
27	CCOc1ccc(C(=O)OCc2cc(=O)n3cc(C)sc3n2)cc1
→ /	/	1%	-16%	/	-2.0%	/	-1%[46.1 µM]
28	CCN1CCN(C(=O)CS(=O)Cc2nc(-c3ccc(OC)cc3)oc2C)CC1 (stereo unspecified)
→ -3%	/	-11%	-25%	7%	-3.7%	1%	/
29	Cc1nn(-c2ccc(N3CCCC3)nn2)c(C)c1CCC(=O)Nc1ccc(F)cc1F
→ /	/	-6%	0%	/	-4.6%	/	5%[46.1 µM]
30	CCN(CC)CCN=Cc1c(O)n(CCC2=CCCCC2)c(=O)[nH]c1=O
→ 2%	10%	-1%	-14%	1%	2.7%	3%	13%

31. CCOC(=O)c1ccc(N2C(=O)CC(N3CCN(C/C=C/c4ccccc4)CC3)C2=O)cc1 (stereo unspecified)
32. O=C(NCc1cccs1)Nc1cccs1
33. Cc1ccc2[nH]c3c(c2c1)CCCC3NC(=O)CCl (stereo unspecified)
34. COc1ccc2c(c1)c(=O)oc1cc(OCC(=O)N3CCc4ccccc4C3)ccc12
35. CC(C)C(NS(=O)(=O)c1ccccc1)C(=O)OCC(=O)NNC(=O)c1ccccc1 (stereo unspecified)
36. COC(=O)c1ccc2c(=O)n(CCN3CCOCC3)c(SCC(=O)NCc3ccccc3)nc2c1
37. CCOC(=O)c1cnc2ccc(OCC)cc2c1NCc1ccccc1OC
38. CCOC(=O)C1(Cc2ccc(Cl)cc2)CCN(C(=O)c2cscn2)CC1
Assay by compound,31,32,33,34,35,36,37,38
RE007 growth inh,11%,37%,16%,5%,9%,-13%,3%,3%
Marburg entry inh,-6%,16%,5.6µM*,-6%,-4%,1%[46.1 µM],?,3%[46.1 µM]
Cruzain noTriton,-4%,?,/,-8%,/,/,-5%,/
2A StopGo,?,70%[activator],-7%,13%,11%,-14%,18µM*,-17%
SARS PLpro yeast,-8%,-7%,-12%,2%,-1%,2%,-13%,0%
Cruzain inh Det,-1.8%,-0.5%,/,-2.7%,/,/,-9.9%,/
NS1 inh,-17%,?,-26%,15%,/,/,-7%,-5%
Lassa entry inh,12%,1%,8.9µM*,?,6%,25%[46.1 µM],8.9µM*,?

39. O=C(Nc1ccc2c(c1)nc1n2CCN(Cc2ccccc2)C1)c1cccs1
40. O=C(Nc1ccccc1)c1ccc(NC2CCCCC2)c(S(=O)(=O)N2CCOCC2)c1
41. COc1ccc(/C=N/Nc2nonc2N)cc1OC
42. NS(=O)(=O)c1ccc(CNS(=O)(=O)c2ccc3c(c2)OCCO3)cc1
43. CCOc1cccc(/C(O)=C2/C(=O)C(=O)N(CCOC)C2c2ccncc2)c1 (stereo unspecified)
44. CCOC(=O)CC(=O)Nc1ccccc1C(=O)O
45. Cc1cccc(NC(=O)Nc2ccc(C)c(C)c2)n1
46. CN(CCc1ccccn1)C(=O)Nc1ccc(Cl)cc1
Assay by compound,39,40,41,42,43,44,45,46
RE007 growth inh,14%[3.69 µM],15%,9%,-3%,-6%,-9%,13%,-11%
Marburg entry inh,5%,?,26%[46.1 µM],18%[46.1 µM],35%,-3%[46.1 µM],?,12%
Cruzain noTriton,?,?,1%,/,4%,4%,?,2%
2A StopGo,12%,7%,-13%,-5%,9%,-12%,43%&51%[activator],51%[activator]
SARS PLpro yeast,-6%,-6%,?,0%,3%,3%,2%,/
Cruzain inh Det,-5.4%,-2.9%,-4.5%,/,0.9%,3.8%,-1.1%&4.2%,5.1%
NS1 inh,-15%,-6%,3%,12%,2%,-1%,-10%,-33%
Lassa entry inh,?,?,8%,12%[46.1 µM],25%,38%,?,7%

Pulled by structure from the list above (5):
46. CN(CCc1ccccn1)C(=O)Nc1ccc(Cl)cc1
40. O=C(Nc1ccccc1)c1ccc(NC2CCCCC2)c(S(=O)(=O)N2CCOCC2)c1
44. CCOC(=O)CC(=O)Nc1ccccc1C(=O)O
41. COc1ccc(/C=N/Nc2nonc2N)cc1OC
43. CCOc1cccc(/C(O)=C2/C(=O)C(=O)N(CCOC)C2c2ccncc2)c1 (stereo unspecified)
Assay by compound,46,40,44,41,43
RE007 growth inh,-11%,15%,-9%,9%,-6%
Marburg entry inh,12%,?,-3%[46.1 µM],26%[46.1 µM],35%
Cruzain noTriton,2%,?,4%,1%,4%
2A StopGo,51%[activator],7%,-12%,-13%,9%
SARS PLpro yeast,/,-6%,3%,?,3%
Cruzain inh Det,5.1%,-2.9%,3.8%,-4.5%,0.9%
NS1 inh,-33%,-6%,-1%,3%,2%
Lassa entry inh,7%,?,38%,8%,25%

Next records
47. COc1ccc(-c2nc(CSCC(=O)N3CCN(c4ccccc4F)CC3)c(C)o2)cc1
48. Cc1ccc(-c2csc3nc[nH]c(=O)c23)cc1
49. CCc1nnc(NC(=O)C2Cc3ccccc3CN2S(=O)(=O)c2c(C)c(C)cc(C)c2C)s1 (stereo unspecified)
50. CC(=O)Nc1ccc(NC(=O)CCc2nc3sc4c(c3c(=O)[nH]2)CCCC4)cc1
51. COc1ccc(Oc2ncnc3c2ncn3Cc2ccccc2)cc1
52. CC(=O)c1cccc(NC(=O)C(OC(=O)/C=C/c2ccc3c(c2)OCO3)c2ccccc2)c1 (stereo unspecified)
Assay by compound,47,48,49,50,51,52
RE007 growth inh,/,-1%,-11%,6%,12%,-12%
Marburg entry inh,?,-1%[46.1 µM],2%,21%,7%,-11%
Cruzain noTriton,?,/,-18%,/,-6%,10µM*
2A StopGo,32µM*,-10%,39%[activator],-15%,12%,43%[activator]
SARS PLpro yeast,/,-7%,0%,17%,/,1%
Cruzain inh Det,-3.9%,/,-1.8%,/,4.3%,1.6%
NS1 inh,/,-2%,4%,/,-42%,8%
Lassa entry inh,-28%[46.1 µM],?,9%,7%,-22%,-1%

Source: PubChem BioAssay
